# Sfp inh: blocks B. subtilis Sfp PPTase activity; AID 1490; Potency, µM, for inactives: max response, negative = inhibition, usual class: inhibitors; Biochemical Sfp PPTase activity, qHTS; 310,000 compounds, 3.5% hits; Q9F4F7; active means well fitted inhibition curve with a large enough effect; inconclusive means small, poorly fitted or top-dose-only effect, or another doubt; inactive means no such curve, though single readings can be large or run the other way;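 further: the enzyme is Sfp with the accession as filed and its product quenches rhodamine fluorescence; potency means the concentration at half of the fitted maximal effect; 0% = enzyme reaction without inhibitor and -100% = no enzyme wells; top concentration of the series not given in the record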
#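 Fluorescence-quenching assay with 15 nM Sfp, 5 uM rhodamine-CoA and 12.5 uM BHQ-2-labelled ybbR peptide in pH 7.6 Hepes/MgCl2 buffer. Enzyme was pre-incubated with compound for 15 min at room temperature. Rate was taken from the 30-min fluorescence change (525/598 nm).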
# TRPML1 ag: agonists of human TRPML1 channel; Q9GZU1; TRPML1-expressing cells, Ca2+ dye fluorescence, FDSS; host cell line not named in the record; reference of the full effect not given here; activation, % (test concentration not listed); 410,000 compounds, 0.12% hits; AID 624414; in the data active = activation above about 50%; inconclusive = about 30% to 50%; inactive = below about 30%; further: 0% is about no effect; the text of the record puts the active cut at 80%
# Target sequence (Q9GZU1 whole entry, looked up): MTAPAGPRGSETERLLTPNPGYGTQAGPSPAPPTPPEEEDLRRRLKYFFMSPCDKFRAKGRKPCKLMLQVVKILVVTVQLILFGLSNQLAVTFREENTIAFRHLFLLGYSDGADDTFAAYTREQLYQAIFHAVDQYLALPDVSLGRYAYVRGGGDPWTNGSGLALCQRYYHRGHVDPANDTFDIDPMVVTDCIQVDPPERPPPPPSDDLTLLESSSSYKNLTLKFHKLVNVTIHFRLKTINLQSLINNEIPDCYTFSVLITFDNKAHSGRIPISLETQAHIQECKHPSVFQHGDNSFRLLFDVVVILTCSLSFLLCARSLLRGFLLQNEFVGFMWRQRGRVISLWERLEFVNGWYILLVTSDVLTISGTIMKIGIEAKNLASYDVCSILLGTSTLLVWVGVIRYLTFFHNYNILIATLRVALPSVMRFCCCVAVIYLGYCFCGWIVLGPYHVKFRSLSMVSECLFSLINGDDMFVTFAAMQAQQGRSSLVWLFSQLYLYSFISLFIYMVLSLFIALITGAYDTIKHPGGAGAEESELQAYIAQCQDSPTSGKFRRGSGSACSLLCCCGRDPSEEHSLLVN
#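 Kinetic FDSS Ca2+ read in Tet-induced TRPML1-DL cells (ABD Ca8 dye plus quencher, 45-90 min RT loading): baseline, then compound, then 110 s agonist window; EC80 agonist 54-4 at 4uM final added afterwards for a 110 s antagonist window.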
# ClpP mod: qHTS Assay for Activators of ClpP | ATP-dependent Clp protease proteolytic subunit (Bacillus subtilis (strain 168)), P80244 | purified B. subtilis ClpP, FRET peptide cleavage, 20 min | Potency, µM (top dose mostly 57.5 µM), inactives show at the top dose activity change, negative = active | 340,000 compounds, 1.9% hits | AID 651965, 2013; active = well fitted falling curve with a large enough effect; inconclusive = small, poorly fitted or top-dose-only effect; inactive = no such curve, though single readings can be large or run the other way; further: potency means the concentration at half of the fitted maximal effect; the source files actives as falling curves though it sought activators and does not explain the sign; nearly all actives have a fitted effect of over 65% in size; many hits overshoot -100%
# Target sequence (P80244 whole entry, looked up): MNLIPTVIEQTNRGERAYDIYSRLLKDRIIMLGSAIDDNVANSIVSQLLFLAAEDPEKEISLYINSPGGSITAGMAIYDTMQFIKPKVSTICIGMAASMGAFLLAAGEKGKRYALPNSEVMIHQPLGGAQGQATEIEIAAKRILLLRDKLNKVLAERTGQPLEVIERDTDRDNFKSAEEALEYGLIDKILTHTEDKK
#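 ClpP 10 microg/mL final, pH 8 Tris/KCl buffer with BSA, glycerol, Tween-20; compound pinned in; FRET-FV substrate; RT 20 min; Ex320/Em430; ΔFRET vs ADEP 5.8 microM, DMSO, no enzyme.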
# TRPV1 potentiator: potentiators of human vanilloid receptor 1 (TRPV1) | potentiation, % at 8.33 µM | Q8NER1 | TRPV1-expressing cells, Fluo-8 calcium influx, capsaicin EC20 potentiation; host cell line not named in the record; control for the full effect not named in the record | 320,000 compounds, 0.02% hits; active means potentiation above 80%; inconclusive means 30% to 80%; inactive means below 30%; further: 0% is about no effect
#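 Cells expressing TRPV1 were dye-loaded with Fluo-8 and read kinetically: 10 s baseline, 3 min after compound (agonist portion), then 2 min after EC20 capsaicin (allosteric enhancer portion). Calcium-bound dye fluorescence at 480/520 nm.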
# Menin-MLL FL inh: inhibitors of human menin-MLL interaction, wild-type MLL peptide; AID 1766; FP activity change, % at 61.4 µM; 290,000 tested, under 10 active; Fluorescence polarization, fluorescein-MLL peptide displacement from menin; inconclusive = falling polarisation curve, or a change in total fluorescence; inactive = total fluorescence flat and polarisation flat or rising; no compound was filed as active; the % refers to the polarisation; negative = inhibition;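 further: % of control where 0% means no effect; inhibitors lower the polarisation; unlabelled MLL peptide was the positive control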
# TRPML1 inh: blocks the human TRPML1 channel. 390,000 compounds, 0.02% hits. Q9GZU1. AID 624415. activity change, negative = inhibition, % (test concentration not listed). TRPML1-inducible cells, Ca2+ dye fluorescence, FDSS; stronger effect = lower value; inhibition of EC80 agonist-evoked calcium signal; in the data active means activity change below about -50%; inconclusive means about -30% to -50%; inactive means above about -30%;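 further: stimulus is agonist 54-4 at its EC80 concentration; on the % scale 0 is the no-effect control and ±100 the full control effect; compound concentration not given in the record; the text of the record puts the active cut at -80%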
#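 TRPML1-DL cells, Tet-induced overnight (~16 h, 37 °C) at 1,500 cells/well, were loaded with Ca8 no-wash dye plus quencher for 45-90 min at room temperature. Compounds were pinned during FDSS kinetic reading; agonist 54-4 at EC80 (4 uM final) then added.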
# PINK1 expr mod: changes PINK1 expression; PINK1 immunofluorescence, high-content cytometry, 24 h; Potency, µM (doses to about 76.6 µM), for inactives: top-dose activation (PINK1 increase), hits mostly activators; 410,000 compounds, 0.2% hits; active = well fitted activation curve with a large enough effect; inconclusive = small, poorly fitted or top-dose-only effect; inactive = flat fitted curve, though single readings scatter; cell line not stated here;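 further: potency means the concentration at half of the fitted maximal effect; % of control where 0% means no effect; nearly all actives have a fitted effect of over 65% in size; a mitochondrial uncoupler was the plate control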
#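 PINK1 protein, normally rapidly degraded, was detected by immunofluorescence after 24 hour compound treatment of a stable cell line. Titration data (5 concentrations) came from laser-scanning cytometry, with CCCP-treated wells as controls.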
# * hit, by the source's call; ? = inconclusive; . = not tested or not shown; & = joins results of further samples; [ ] = remark or other dose. Not a hit list; overall some 4.4% were active at least once.
molecule	Sfp inh	TRPML1 ag	ClpP mod	TRPV1 potentiator	Menin-MLL FL inh	TRPML1 inh	PINK1 expr mod
COc1ccc(CN2CCN(S(=O)(=O)c3ccccc3)CC2)c(OC)c1OC	.	-0.4	-2.0%	.	.	28	-0.6%
CCN(C(=O)CSc1cc(C)c2cccc(C)c2n1)C1CCS(=O)(=O)C1 (configuration not stated)	14%	1.1	.	-15	-1.8	-6	-1.9%
O=C(Nc1ccc(N2CCN(C(=O)c3ccccc3)CC2)cc1)c1ccc2c(c1)OCCO2	-9%	0.9	0.5%	-7	.	-7	3.3%
C=C1CC2C(=O)N(Cc3ccccc3)C(C(=O)O)C1N2C(=O)OC(C)(C)C (configuration not stated)	0%	-0.2	.	.	-0.6	-11	.
O=S(=O)(Nc1ccc(Br)cc1)c1cccc(NS(=O)(=O)c2cccs2)c1	.	5.3	-1.4%	.	.	-3	1.2%
O=C(CN1CCN(c2ccc(F)cc2)CC1)Nc1ccccc1	-2%	1.2	-2.2%	5	-1.9	27	1.1%
CCc1n[nH]c(=S)n1/N=C/c1ccc(N(CC)CC)cc1	-33%	1.1	0.9%	-8	0.0	2	-0.2%
CCc1ccc(C(=O)C(C)OC(=O)c2cccc(S(=O)(=O)N3CCOCC3)c2)cc1 (configuration not stated)	.	1.9	.	12	.	50	-1.3%
C[C@H](CO)N1C[C@H](C)[C@@H](CN(C)C(=O)NC2CCCCC2)Oc2c(NC(=O)c3ccncc3)cccc2C1=O	.	-0.1	-1.4%	.	.	-4	0.1%
CCOC(=O)c1ccc(NC(=O)CC2C(=O)N(c3ccc(F)cc3)C(=O)N2Cc2ccc3c(c2)OCO3)cc1 (configuration not stated)	.	1.8	0.1%	.	.	-14	1.6%
COC(=O)C1=C(C)NC(=O)NC1c1c(O)ccc2ccccc12 (configuration not stated)	10%	-0.5	0.8%	5	0.4	12	0.9%
COc1ccc(C)cc1NC(=O)CNC(C)C(=O)Nc1ccc(C(C)=O)cc1 (configuration not stated)	5%	.	-1.6%	-16	-3.3	.	-0.7%
COC(=O)c1ccccc1N1C(=O)C2C(C1=O)[C@H]1C=C[C@@H]2C1 (some centres not stated)	20%	0.1	0.6%	-3	-1.4	-4	0.1%
CC1CN(S(=O)(=O)c2ccc(CN3C(=O)c4cccnc4C3=O)cc2)c2ccccc2O1 (configuration not stated)	12%	1.1	-2.1%	0	0.0	-4	0.4%
CCCCOc1cccc(C(=O)Nc2ccc(S(=O)(=O)Nc3cc(C)on3)cc2)c1	16%	0.2	.	2	0.5	16	2.3%

# Quoted at random: 2 records from the list
molecule	Sfp inh	TRPML1 ag	ClpP mod	TRPV1 potentiator	Menin-MLL FL inh	TRPML1 inh	PINK1 expr mod
COc1ccc(CN2CCN(S(=O)(=O)c3ccccc3)CC2)c(OC)c1OC	.	-0.4	-2.0%	.	.	28	-0.6%
COC(=O)c1ccccc1N1C(=O)C2C(C1=O)[C@H]1C=C[C@@H]2C1 (some centres not stated)	20%	0.1	0.6%	-3	-1.4	-4	0.1%

# Later entries.
molecule	Sfp inh	TRPML1 ag	ClpP mod	TRPV1 potentiator	Menin-MLL FL inh	TRPML1 inh	PINK1 expr mod
Clc1ccc(OCCn2cnc3ccccc32)c(Cl)c1	-7%	5.8	-3.7%	-8	1.2	9	-0.3%[38.3 µM]
COc1cc(C(=O)NCc2ccc(-c3nc4ccccc4s3)cc2)cc(OC)c1OC	-2%	0.2	-14%	29	0.4	-6	1.8%
CCOc1ccc(N2CC(C(=O)NCc3nnnn3-c3ccc(C)c(C)c3)CC2=O)cc1 (configuration not stated)	3%	0.0&-0.5	-1.2%&1.3%	-5	-0.1	-6&-13	-0.6%&1.0%
COc1ccccc1CC(=O)N1CCN(S(=O)(=O)c2cccs2)CC1	9%	-0.4	1.9%	-16	.	9	1.7%
CCOCCCn1c(SCC(=O)OCC)nc2c(sc3ccccc32)c1=O	.	1.2	-5.0%	.	.	8	1.2%
Cc1ccc2nc(Cl)c3cc(C(=O)N4CCCCC4)sc3c2c1	.	-0.1	-1.0%	.	.	-13	1.0%
Cc1cccc(Nc2nc(Cl)ncc2F)c1C	16%	-0.7	.	14	0.8	-8	1.1%
O=C1CCC(C(=O)N2CCCCCCC2)CN1Cc1cccc(C(F)(F)F)c1 (configuration not stated)	1%	0.9	1.1%	-22	.	0	2.9%
NC[C@H](Cc1ccccc1)NCCCCC1CCCCC1	.	-0.2	-0.2%	5	.	1	17%
Cc1ccn2c(Nc3ccc4c(c3)OCO4)c(-c3ccc(C)o3)nc2c1	.	1.1	4.1%	.	.	3	-1.1%
C/C(CCc1ccc2c(c1)OCO2)=N\N=C(/N)SC1CC(=O)N(c2ccccc2F)C1=O (configuration not stated)	79µM*	0.2	0.0%	-6	3.6	?	-0.1%
O=c1[nH]c(/C=C2\C=Nc3ccccc32)c(O)n1Cc1ccccc1F	-18%	0.0	.	23	23	1	2.3%
CC1Sc2ccc(S(=O)(=O)NCc3ccccc3)cc2NC1=O (configuration not stated)	4%	1.0	-2.0%	-8	.	22	-1.3%
N=c1n(CC(=O)c2ccc(Br)s2)c2ccccc2n1Cc1ccccc1	14µM*	-0.2	0.4%	-12	-0.6	-4	-0.7%
Cc1ccc(NC(=O)c2cnc(N3CCCCC3)c3ccccc23)cc1Cl	.	0.4	32µM*	.	.	9	1.7%
COCCn1c(=O)c(CCc2ccccc2)nc2cnc(N3CCN(C)CC3)nc21	4%	.	.	.	-3.2	.	-0.4%
Cc1nc(C(=O)O)cc([N+](=O)[O-])c1C	.	-0.8	0.6%	.	.	11	0.8%
O=C(Nc1ccc(S(=O)(=O)N2CCOCC2)cc1)c1cc(S(=O)(=O)N2CCOCC2)ccc1Cl	24%	-0.6	0.6%	-5	.	-8	0.4%
O=C(COc1ccccc1O)NCCN1CCOCC1	5%	0.2	.	7	-1.3	3	1.1%
Cc1ccc(C(=O)NCC(c2ccc(Cl)cc2)N2CCCCC2)cc1 (configuration not stated)	.	0.7	1.2%	.	.	-7	0.6%
OC[C@@H]1CN(Cc2ccc(-c3ccccc3)cc2)C[C@H](n2cnc3c(NCc4ccncc4)ncnc32)O1	.	1.8	-0.9%	.	.	.	1.2%
COc1cc(/C=N/NC(=O)c2ccccc2O)ccc1OC(=O)CC1SC(=O)NC1=O (configuration not stated)	12%	-0.4	-6.6%	-13	2.6	-11	-0.3%
O=C(NCCCn1ccnc1)c1ccc(S(=O)(=O)N2CCCCCC2)cc1	33%[activator]	0.2	-6.9%	9	0.6	2	-2.8%
Cc1ccc(CNC(=O)c2ccc(N3CCC4(CC3)CC(c3ccccc3)=NO4)c([N+](=O)[O-])c2)cc1	9%	-0.3	-2.0%	10	7.1	-5	0.7%
COC(=O)CN(c1ccc2c(c1)OCCO2)S(=O)(=O)c1ccccc1	1%	0.3	0.7%	-19	0.5	-2	-5.0%
COc1ccccc1NC(=O)NCCc1c[nH]c2ccccc12	6%	-0.5	0.2%	20	4.3	13	0.4%
CC1=C(C(=O)N2CCCCCC2)CC(CC(=O)NCCN2CCOCC2)C(=O)N1Cc1ccccc1 (configuration not stated)	.	-0.8	1.0%	.	.	.	1.9%
S=c1[nH]nc(-c2ccccc2)n1Cc1ccccc1	12%	-0.4	-16%	?	-3.5	-8	-0.7%
COc1cc(/C=N/NC(N)=S)ccc1OCC(=O)Nc1ccc(C)c(C)c1	8%	0.2	-24%	24	-3.9	12	4.3%
CC(C)CNC(=O)COC(=O)/C=C/c1ccccc1[N+](=O)[O-]	-3%	0.6	-0.2%	-11	3.2	10	0.6%
O=C(NCc1cccc(C(F)(F)F)c1)c1[nH]c(C(F)(F)F)nc1-c1ccccc1	.	0.2	-15%	.	.	.	?
O=C(CC1(O)C(=O)N(C/C=C/c2ccccc2)c2ccccc21)c1ccccn1 (configuration not stated)	-6%	0.6	0.0%	16	3.7	-6	4.5%[38.3 µM]
CC1(C(=O)Nc2ccc3c(c2)OCO3)CCN1C(=O)CC1CC1 (configuration not stated)	.	-0.5	0.7%	.	.	.	1.8%
Cc1cccc(N2CCN(CC(=O)Nc3nccs3)CC2)c1C	13%	0.7	-1.1%	-21	0.6	-2	2.1%
CCn1c(=O)c2cc(C(=O)Nc3cc(OC)c(OC)c(OC)c3)sc2c2ccccc21	.	0.9	50%	.	.	11	3.5%
Cc1ccc(S(=O)(=O)N(CC#N)CC#N)cc1	0%	-0.6	.	4	-0.1	3	0.5%
Cc1cc(NC(=O)CCC(=O)N(CC(=O)NCC2CCCO2)c2ccc(C)c(C)c2)no1 (configuration not stated)	4%	-0.6	.	13	1.4	-5	0.3%
CCOC(=O)C1=C(CNCc2ccc(F)cc2)NC(=O)NC1c1cccc([N+](=O)[O-])c1 (configuration not stated)	6%	2.4	.	-1	1.8	0	-0.7%
O=C(Nc1cccc(S(=O)(=O)N2CCOCC2)c1)c1ccc(Cl)c([N+](=O)[O-])c1	-8%	1.2	.	-3	-1.7	-4	-0.9%
C[C@@H](C(=O)NCCc1ccccc1F)N1C(=O)N2CCc3c([nH]c4ccccc34)[C@@]2(C)C1=O	0%	.	-0.6%	7	-6.8	.	5.1%
COC(=O)c1cccnc1NC(=S)NNC(=O)c1ccccc1	?	-0.4	-9.4%	7	7.4	2	0.6%[38.3 µM]
O=C1CCN(Cc2ccccc2)CCN1[C@H](CSc1ccccc1)c1ccccc1	3%	-0.2	1.2%	0	0.2	-7	5.7%
COc1ccc2c(c1OC)C(=O)N(c1ccc(OCc3ccccc3)cc1)C2=O	-2%	0.9	.	9	1.2	-12	0.3%
CC(=O)c1ccc(NC(=O)c2cnn3c(C(F)F)cc(C4CC4)nc23)cc1	.	0.0	-1.2%	.	.	-6	1.8%
